# Compound activity (PubChem)
# RGS16-Gao: RGS16-Galphao interaction regulator (human); bead-based flow cytometry RGS16-Galphao binding, fluorescence; actives lie on both sides; 220,000 tested, 0.38% active; binding response (% of control), % at 10 µM; O15492+P09471;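 active = below 25% or above 175%, edge rows of some plates excepted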;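 note: Galphao activated by GDP with aluminum fluoride before binding; 100% = wells without compound and 0% = beads without RGS; some results beyond the cut were filed as inactive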
# HSV augment: increases HSV replication in cells; HSV replication augmentation in cells, fold increase; maximum fold increase; 220,000 tested, 0.005% active; AID 1956;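 active = peak rise of 1.5-fold or more in the series; tested in PC3 cells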;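 note: first round at 10 µM; read as green reporter fluorescence; hits show the peak of a series up to 25 µM; 1 = signal of infected wells without compound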
# GALR2 ag: GALR2 (human) receptor agonism | AID 803 | activation, %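 (tested at 5 µM)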 | 140,000 tested, 0.48% active | GALR2-expressing cells, agonist activation read-out;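 active = above mean plus 3 SD of all compounds, about 5% in these data, not always enough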;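 note: 0% = vehicle buffer wells and 100% = reference agonist at full effect; tested in CHO reporter cells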
# PKD1 inh: blocks activity of human protein kinase D1; AID 797; 200,000 tested, 0.056% active; inhibition, %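 (about 10 µM by stock and volumes)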; PKD1 kinase fluorescence polarization assay; Q15139;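 active = inhibition of 50% or more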;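 note: controls were vehicle for no effect and a reference inhibitor for full effect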
# Target sequence (Q15139 whole entry, looked up): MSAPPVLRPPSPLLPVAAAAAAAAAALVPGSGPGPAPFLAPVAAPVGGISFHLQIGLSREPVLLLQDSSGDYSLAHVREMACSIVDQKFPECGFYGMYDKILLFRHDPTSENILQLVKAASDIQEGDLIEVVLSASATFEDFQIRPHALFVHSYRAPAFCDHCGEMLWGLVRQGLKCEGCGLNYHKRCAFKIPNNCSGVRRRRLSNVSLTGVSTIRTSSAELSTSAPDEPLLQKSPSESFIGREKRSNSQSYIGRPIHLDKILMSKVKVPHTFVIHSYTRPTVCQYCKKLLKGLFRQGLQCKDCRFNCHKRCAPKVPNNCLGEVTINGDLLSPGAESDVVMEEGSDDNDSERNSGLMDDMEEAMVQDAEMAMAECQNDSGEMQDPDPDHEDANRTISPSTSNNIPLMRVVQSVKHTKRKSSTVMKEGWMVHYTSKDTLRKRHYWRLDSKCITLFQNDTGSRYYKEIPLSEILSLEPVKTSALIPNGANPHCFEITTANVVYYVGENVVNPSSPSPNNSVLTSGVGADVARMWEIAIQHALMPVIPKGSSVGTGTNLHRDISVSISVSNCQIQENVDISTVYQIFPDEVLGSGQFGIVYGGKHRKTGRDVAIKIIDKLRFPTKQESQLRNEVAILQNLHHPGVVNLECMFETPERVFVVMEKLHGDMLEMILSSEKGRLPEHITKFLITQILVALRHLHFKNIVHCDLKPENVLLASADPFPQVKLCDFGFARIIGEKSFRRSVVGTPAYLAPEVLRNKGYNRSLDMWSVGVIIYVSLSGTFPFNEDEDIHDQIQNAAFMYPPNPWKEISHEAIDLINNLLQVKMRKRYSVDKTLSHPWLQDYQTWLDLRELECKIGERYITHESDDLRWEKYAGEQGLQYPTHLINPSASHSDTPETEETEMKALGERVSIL
# Insulin prom inh: TRM-6 insulin promoter activity inhibition | TRM-6 cells (human fetal islet line), insulin promoter-eGFP reporter, imaging; reporter expression induced with tamoxifen | inhibition, % at 2 µM | 130,000 tested, 0.9% active | AID 1273;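 active = inhibition above the mean plus 3 SD, with well images judged a real hit on visual review, cut at about 60% in these data, passing the limit was not always enough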
# Insulin prom inh cell count: second read-out of Insulin prom inh, no call of its own (marks repeat the call); normalized cell count, %; measured here: cell count, toxicity; reference of the scale not given here;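 cells exposed to compound for 48 h; stained nuclei by imaging scaled within each plate; lower means fewer cells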
# HSV augment primary fold: further read-out of HSV augment, marked with its call; fold increase; compound at 10 µM; measured here: primary screen fold increase 10 uM; tested in PC3 cells;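 GFP signal in the first replicate; 1 = infected wells without compound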
# * marks the source's active call; other numbers are inactive results; i = inactive; / = not tested or not shown; [ ] = remark or other dose. No enrichment for hits; any-hit rate near 1.2%.
SMILES,RGS16-Gao,HSV augment,HSV augment primary fold,GALR2 ag,PKD1 inh,Insulin prom inh,Insulin prom inh cell count
CC(=O)/C(=N/Nc1ccc([N+](=O)[O-])cc1)N1CCCc2ccccc21,102.4,i,1.06,/,/,/,/
Cc1cc(S(=O)(=O)N2CCOCC2)ccc1F,100.1,i,0.88,1.1,-2.7,9.3,217.5
CC(C)COC(=O)N1CCCC1C(=O)O (stereo not drawn),86.1,i,0.99,-2.4,11.6,56.2,74.4
FC(F)(F)c1nc(N2CCCC2)ncc1-c1nnnn1-c1ccc(Cl)cc1,100.2,i,0.95,-0.8,-4.3,-23.3,91.5
CCOC(=O)c1oc2ccccc2c1CN1CCN(C(=O)c2ccccc2)CC1,118.7,i,1.16,-1.9,4.2,/,/
O=C(CSc1nc2ncccc2[nH]1)Nc1ccc2c(c1)OCO2,101.7,i,0.99,/,/,/,/
COCCn1c(Sc2ccccc2)nc2c1c(=O)[nH]c(=O)n2C,101.3,i,0.98,-0.9,-2.9,/,/
CC(=O)c1c(C)[nH]c(C(=O)CSc2nnc(CN3CCCCCC3=O)n2-c2ccccn2)c1C,103.0,i,0.83,-4.7,-4.5,-6.5,84.3
S=c1[nH]nc(-c2ccc3ccccc3n2)n1-c1ccc(Cl)cc1,176.9*[activator],i,1.48,0.6,-6.9,/,/
CC(Oc1cc(F)ccc1[N+](=O)[O-])C(=O)N(C)CC(=O)Nc1ccccc1C(F)(F)F (stereo not drawn),106.2,i,0.93,/,0.0,-66.7,188.3
Cc1nn(C)c(C(=O)NNC(=S)NCc2ccco2)c1Cl,94.5,i,0.87,-2.3,-0.5,23.1,117.7
CC1(C)Cc2ccccc2C(=O)N1,96.5,i,0.96,-1.3,-6.9,-23.3,106.2
Cc1ccc(NC(=S)N2CCC(c3ccccc3)C2)c(Cl)c1 (stereo not drawn),94.0,i,0.88,/,1.8,/,/
COc1ccc(/C=C2\SC(c3ccc(C)cc3)=NC2=O)cc1OC,90.0,i,0.75,-0.9,-14.7,/,/
COc1ccc(-c2c(C#N)c(N)nc(Sc3ccc(Cl)cc3)c2C#N)cc1,95.3,i,1.01,/,/,/,/
CN(CCCCCC(=O)/C=N/O)Cc1ccccc1,102.4,i,0.95,-0.2,-0.1,/,/
C=CCNC(=S)NNC(=O)Cn1c(-c2ccccc2)cc(=O)n2ncnc12,99.7,i,1.04,/,/,/,/
O=C(CN1CCN(Cc2ccc(Cl)cc2)CC1)N/N=C/c1c[nH]c2ccccc12,59.8,i,1.02,-0.6,-4.8,-12.5,81.5
Cc1ccc(N2C(=O)[C@@H]3C(C(=O)C(c4ccccc4)c4ccccc4)=NN[C@@H]3C2=O)cc1,101.4,i,1.11,-0.2,5.6,/,/
CC(c1nccs1)N(C)c1nc2nonc2nc1N(C)C (stereo not drawn),104.6,i,1.02,/,0.7,/,/
Clc1cccc2c1Sc1ccccc1CC2N1CCNCC1 (stereo not drawn),141.2,i,0.67,0.2,13.3,-3.2,65.1
Cc1ccc2[nH]c(=O)c(CN(CCO)C(=O)N(C)C)cc2c1,/,i,1.01,-0.6,-2.0,-37.5,109.1
COCCSc1nnc(NC(=O)COC)s1,100.3,i,1.01,-1.5,-14.9,/,/
Cc1c(Cl)c([N+](=O)[O-])nn1CC(=O)NCC1CCCO1 (stereo not drawn),107.5,i,0.95,/,-0.2,/,/
c1ccc(CSc2nnc(-c3ccco3)n2Cc2ccco2)cc1,102.5,i,1,-0.8,6.5,22.6,54.3
Nc1c2c(nc3ccc(Br)cc13)N(c1ccccc1)CC2,122.8,i,1.03,0.1,1.0,48.4,124.4
CC1CC(CC(C)C(=O)NC(=S)Nc2ccc(S(N)(=O)=O)cc2)C(=O)O1 (stereo not drawn),104.1,i,0.96,/,-2.5,16.7,193.7
CC(NC(=O)Cn1nc(C(=O)O)c2ccccc2c1=O)c1ccccc1 (stereo not drawn),114.8,i,1.01,-0.1,-2.2,65.7,105.8
COc1ccc2ncc(S(=O)(=O)c3ccccc3)c(N3CCC4(CC3)OCCO4)c2c1,104.5,i,0.86,-0.1,2.8,-48.4,66.1
O=S(=O)(c1ccccc1Cl)N1CCCC1c1nc(-c2ccccc2Cl)no1 (stereo not drawn),94.1,i,0.87,-0.2,1.7,-20.8,61.7
Cc1cc(C)cc(NC(=S)N2CCC(c3nc4ccccc4s3)CC2)c1,114.6,i,0.87,-2.9,0.0,6.7,165.6
CCOC(=O)COc1ccc(/C=C2/SC(=Nc3ccccc3)N(Cc3cccnc3)C2=O)cc1OC,100.7,i,0.85,-2.6,4.5,13.0,134.0
COc1ccc([N+](=O)[O-])c(S(=O)(=O)c2ccc(Cl)cc2)n1,97.0,i,0.68,/,/,/,/
O=C1SC(SCc2ccccc2Cl)=N/C1=C\c1ccc(C(=O)O)cc1,96.9,i,0.82,/,1.5,/,/
CC(C)(C)n1cnnc1Sc1ccc([N+](=O)[O-])cn1,103.5,i,1,/,/,/,/
O=C(NNC(=O)C(c1ccccc1)c1ccccc1)c1ccccn1,106.6,i,0.64,-1.1,-9.5,/,/
O=C(CSc1nc2ccccc2n1CC(=O)NCc1ccccc1)NCc1ccco1,105.0,i,1,-0.3,-19.2,-27.3,104.1
CC(=O)Nc1ccc2oc(-c3ccccc3)nc2c1,99.7,i,0.93,/,-0.5,6.7,90.3
N#Cc1ccc(OCC(=O)Nc2ccccc2NS(=O)(=O)c2cccs2)cc1,108.8,i,0.95,-0.2,-8.2,-21.4,86.6
O=C(Nc1ccc(OC(F)(F)F)cc1)c1ccc2nccnc2c1,98.8,i,0.99,/,-5.6,/,/

# Exported with tabs: 5 of the compounds above.
mol	RGS16-Gao	HSV augment	HSV augment primary fold	GALR2 ag	PKD1 inh	Insulin prom inh	Insulin prom inh cell count
c1ccc(CSc2nnc(-c3ccco3)n2Cc2ccco2)cc1	102.5	i	1	-0.8	6.5	22.6	54.3
Nc1c2c(nc3ccc(Br)cc13)N(c1ccccc1)CC2	122.8	i	1.03	0.1	1.0	48.4	124.4
CC1CC(CC(C)C(=O)NC(=S)Nc2ccc(S(N)(=O)=O)cc2)C(=O)O1 (stereo not drawn)	104.1	i	0.96	/	-2.5	16.7	193.7
CC(NC(=O)Cn1nc(C(=O)O)c2ccccc2c1=O)c1ccccc1 (stereo not drawn)	114.8	i	1.01	-0.1	-2.2	65.7	105.8
COc1ccc2ncc(S(=O)(=O)c3ccccc3)c(N3CCC4(CC3)OCCO4)c2c1	104.5	i	0.86	-0.1	2.8	-48.4	66.1

# Further results.
SMILES,RGS16-Gao,HSV augment,HSV augment primary fold,GALR2 ag,PKD1 inh,Insulin prom inh,Insulin prom inh cell count
Oc1c(N=NC(=S)Nc2ccccc2F)c2ccccc2n1Cc1ccc(F)cc1,114.8,i,0.91,/,11.0,7.1,77.7
CCOc1ccc(NC(=O)CSc2nccn2C)cc1,99.1,i,0.86,-0.2,1.9,15.4,163.7
Brc1ccccc1-c1nnc(CSc2nnc3sc4ccccc4n23)o1,103.2,i,1.04,-0.5,-0.8,7.1,89.2
CC(=O)C1=C(O)C(=O)N(Cc2ccco2)C1c1ccccc1F (stereo not drawn),99.9,i,1,/,-3.8,14.3,69.1
COC(=O)C1=C(C(=O)OC)[C@@H]2N(C)c3ccc(OC)cc3[C@@]23C[C@@H](C(=O)OC)N(C(=O)c2ccc(Br)cc2)C3=N1,105.4,i,0.89,/,/,/,/
COc1ccccc1-n1c(SCc2cc(=O)oc3cc(O)ccc23)nc2ccccc2c1=O,103.6,i,0.94,1.2,-4.7,23.3,95.5
COc1ccc(NCC(O)Cn2c(C)c(C)c3ccccc32)cc1 (stereo not drawn),104.1,i,1.01,/,4.1,/,/
O=c1[nH]c(=O)n(-c2ccccc2)c2c1C(C(F)(F)F)(C(F)(F)F)N=C(C1CCCCC1)N2,99.2,i,1.11,-1.9,6.5,19.4,98.9
CC1CC(C)(C)NC(=S)N1CCCC(=O)Nc1ccc(F)cc1 (stereo not drawn),100.0,i,0.94,/,-2.2,/,/
O=C1CSC(=S)N1/N=C/c1ccc(O)c([N+](=O)[O-])c1,100.8,i,1,/,0.9,-16.7,59.9

# Another view of 5 compounds above:
# Below each compound – RGS16-Gao | HSV augment | HSV augment primary fold | GALR2 ag | PKD1 inh | Insulin prom inh | Insulin prom inh cell count
- Brc1ccccc1-c1nnc(CSc2nnc3sc4ccccc4n23)o1
→ 103.2 | i | 1.04 | -0.5 | -0.8 | 7.1 | 89.2
- CC(=O)C1=C(O)C(=O)N(Cc2ccco2)C1c1ccccc1F (stereo not drawn)
→ 99.9 | i | 1 | / | -3.8 | 14.3 | 69.1
- COC(=O)C1=C(C(=O)OC)[C@@H]2N(C)c3ccc(OC)cc3[C@@]23C[C@@H](C(=O)OC)N(C(=O)c2ccc(Br)cc2)C3=N1
→ 105.4 | i | 0.89 | / | / | / | /
- COc1ccccc1-n1c(SCc2cc(=O)oc3cc(O)ccc23)nc2ccccc2c1=O
→ 103.6 | i | 0.94 | 1.2 | -4.7 | 23.3 | 95.5
- COc1ccc(NCC(O)Cn2c(C)c(C)c3ccccc32)cc1 (stereo not drawn)
→ 104.1 | i | 1.01 | / | 4.1 | / | /

# (next part)
SMILES,RGS16-Gao,HSV augment,HSV augment primary fold,GALR2 ag,PKD1 inh,Insulin prom inh,Insulin prom inh cell count
O=c1oc2ccccc2c(N2CCCCC2)c1CN1CCCC1,108.5,i,1.09,-1.1,-4.2,23.8,117.2
O=c1cc(C(F)(F)F)[nH]c2ccc(C(F)(F)F)cc12,101.2,i,0.98,/,/,/,/
CCOC(=O)COc1cccc2c(=O)n(CC(=O)N3CCC(C)CC3)ccc12,103.5,i,0.87,/,12.0,/,/
CC(NC(=O)C1CCCN(S(=O)(=O)c2cccs2)C1)c1ccccc1 (stereo not drawn),95.7,i,1.03,-0.6,5.5,/,/
CCN(CC)CCN1C(=O)C(=O)/C(=C(/O)c2ccc(F)cc2)C1c1ccncc1 (stereo not drawn),126.0,i,1.22,0.4,-13.3,/,/
CCOC(=O)COc1nc(C)cc(C(F)(F)F)c1C#N,96.4,i,0.99,/,/,/,/
O=C(c1cccc(C(F)(F)F)c1)N1CCN(c2cc(=O)[nH]nc2-c2ccccc2)CC1,92.4,i,0.87,0.9,13.5,-20.8,60.9
COCCN(C(=O)Nc1ccccc1)C(C)c1cccnc1 (stereo not drawn),101.0,i,0.91,-0.9,-3.1,/,/
OCC1OC(n2cnc3c(NC4CCCCC4)ncnc32)C(O)C1O (stereo not drawn),98.2,i,1.11,/,7.7,/,/
Cc1ccc(N2CC(C(=O)OCc3ccccc3)CC2=O)cc1 (stereo not drawn),98.2,i,1.01,-0.3,4.0,/,/
CCn1cc(-c2nnnn2-c2ccc(Cl)cc2)c(=O)c2ccccc21,97.4,i,0.86,-1.6,-9.3,/,/
Cc1ccc(NC(=O)/C(=C/c2ccncc2)NC(=O)c2ccccc2)cc1,69.0,i,0.95,-0.9,-6.1,22.2,140.8
CCc1nc(C)cn1S(=O)(=O)c1cc(Br)c(C)cc1OC,79.5,i,0.82,-2.0,-7.3,-6.2,75.1
COc1ccc(C)c2sc(=NC(=O)c3ccc(C(C)=O)cc3)n(C)c12,105.0,i,0.79,/,/,/,/
CC(C)C(=O)NNC(=O)c1c(O)c2ccccc2[nH]c1=O,86.3,i,0.92,/,/,/,/
COc1ccc(NC(=O)CC2C(=O)OCC3CCCCN32)cc1Cl (stereo not drawn),143.9,i,1,-0.5,-6.4,/,/
COc1cccc(CC2(CO)CCN(Cc3ccc4cccc(F)c4n3)CC2)c1,104.6,i,1.08,/,6.3,/,/
COC(=O)c1ccc(Oc2nc(SC)nc(N(C)C)n2)cc1,90.0,i,0.91,/,/,/,/
N#CCCN1CCN(S(=O)(=O)c2ccc(S(=O)(=O)N3CCCCCC3)cc2)CC1,100.7,i,0.83,-0.4,1.3,-60.0,37.3
COc1ccc(CCNC(=O)c2ccc(Cl)c(S(=O)(=O)N(C)c3ccccc3)c2)cc1,98.8,i,0.9,-0.5,-6.8,-16.2,153.7
Cc1cc(C)nc(N2CCC(C(=O)Nc3nnc(C)s3)CC2)n1,100.9,i,0.91,-2.2,-7.5,/,/
O=C(C1CCCN1S(=O)(=O)c1ccc(Br)cc1)N1CCOCC1 (stereo not drawn),103.5,i,0.92,/,-2.2,23.5,84.0

# Marked active in RGS16-Gao (from the list above):
smiles	RGS16-Gao	HSV augment	HSV augment primary fold	GALR2 ag	PKD1 inh
S=c1[nH]nc(-c2ccc3ccccc3n2)n1-c1ccc(Cl)cc1	176.9*[activator]	i	1.48	0.6	-6.9
